# Mtb bLac sens: beta-lactam sensitization of Mtb H37Rv; M. tuberculosis H37Rv growth with meropenem, percent inhibition; hits of this screen are not shown here; AID 434955; 330,000 compounds, 0.27% hits; inhibition, % at 25 µM;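 active means about 74% or more and at least 40 points above the plate without the antibiotic, then above 30% in a dose series; inconclusive means first-round hits that could not be retested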;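 further: growth measured after seven days incubation then overnight dye step; 0% = bacteria only wells and 100% = bacteria with antibiotic; twin plates without the antibiotic show which effects depend on it; some results filed as inactive read as strong as hits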
# Arbovirus anti: blocks arbovirus infection | 200,000 compounds, 0.37% hits | arbovirus infection cell-based antiviral screen | inhibition, % at 10 µM;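 active means inhibition from about 30%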;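 further: bluetongue infection of BSR cells; cell survival read as ATP light after 72 h; 0% = infected wells without compound and 100% = uninfected wells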
# YopH inh: blocks Yersinia enterocolitica YopH tyrosine phosphatase | AID 898 | inhibition, %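 (about 10 µM by stock and volumes)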 | fluorescence Ex485/Em525 | 140,000 compounds, 0.16% hits;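 active means inhibition of 50% or more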;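 further: controls were vehicle for no effect and minimum signal wells for full effect; inactives centre near -20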
# Mtb growth: M. tuberculosis H37Rv growth inhibitors, H37Rv strain (AID 1626); inhibition, % at 10 µM; hits with a dose series show IC50 in µM; 220,000 compounds, 0.95% hits; M. tuberculosis H37Rv growth inhibition; higher % means a stronger effect;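 active means confirmed in a dose series; inconclusive means inhibition above 80% but not taken into the dose series; inactive means below 80% or under 30% at every dose of the series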;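 further: bacteria incubated seven days before Alamar blue readout; 0% = bacteria only wells and 100% = bacteria with antibiotic wells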
# RecA splice inh: inhibitors of M. tuberculosis RecA intein splicing; P9WHJ3; cell-free RecA intein splicing, fluorescence; inhibition, %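 (about 9 µM by stock and volumes)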; 290,000 compounds, 0.75% hits; AID 2221; in the data active means inhibition above about 30%; inconclusive means no clear call, values can overlap the other calls;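 further: 0% = vehicle wells and 100% = reference inhibitor control wells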
# Target sequence (P9WHJ3 whole entry, looked up, canonical isoform): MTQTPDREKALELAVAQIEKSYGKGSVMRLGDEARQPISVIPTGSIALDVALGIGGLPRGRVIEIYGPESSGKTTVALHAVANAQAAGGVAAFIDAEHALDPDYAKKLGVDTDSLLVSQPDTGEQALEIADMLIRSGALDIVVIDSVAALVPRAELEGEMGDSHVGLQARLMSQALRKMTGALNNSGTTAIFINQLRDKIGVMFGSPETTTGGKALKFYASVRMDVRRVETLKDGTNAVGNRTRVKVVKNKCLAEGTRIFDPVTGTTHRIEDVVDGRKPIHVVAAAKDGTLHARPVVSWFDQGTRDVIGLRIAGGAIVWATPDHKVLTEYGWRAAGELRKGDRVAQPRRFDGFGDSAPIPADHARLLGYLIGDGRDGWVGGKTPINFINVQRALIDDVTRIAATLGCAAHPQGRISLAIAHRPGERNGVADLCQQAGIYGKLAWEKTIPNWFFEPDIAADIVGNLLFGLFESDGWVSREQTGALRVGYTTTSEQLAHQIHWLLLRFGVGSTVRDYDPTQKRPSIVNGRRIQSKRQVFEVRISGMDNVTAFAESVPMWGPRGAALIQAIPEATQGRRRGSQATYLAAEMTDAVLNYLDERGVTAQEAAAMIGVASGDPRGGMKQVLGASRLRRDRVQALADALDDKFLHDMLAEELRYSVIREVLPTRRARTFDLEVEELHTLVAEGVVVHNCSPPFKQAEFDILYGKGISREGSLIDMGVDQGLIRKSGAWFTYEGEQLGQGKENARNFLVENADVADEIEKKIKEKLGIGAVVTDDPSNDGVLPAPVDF
# Arbovirus anti repeat: further read-out of Arbovirus anti, marked with its call; inhibition, %; measured here: 10K subset replicate screen; many hits read low in the repeat;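 first of two repeat runs on a subset; 0% = infected and 100% = uninfected wells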
# The depositor's hits bear a star; u = inconclusive; x = no result given. These rows are one share of the data; count on the stated rates, not on these rows.
SMILES,Mtb bLac sens,Arbovirus anti,YopH inh,Mtb growth,RecA splice inh,others
COc1cccc(C(C(=O)NC2CCCC2)N(Cc2cccnc2)C(=O)Cc2cccs2)c1 (stereo not given),-2,x,x,x,-0.4,
Cc1cc(C)n2nc(C(=O)N/N=C/c3ccccc3Cl)nc2n1,-2,-4,x,-8%,-5.5,
CCn1c(CCCc2ccc(OC)c(C)c2)n[nH]c1=S,3,3,x,2%,-0.9,
COc1ccccc1/C=C/C(=O)NC(=S)N(C)C1CCCCC1,10,3,-31,-5%,1.3,
COc1ccccc1C(=O)NC(=O)COc1ccc([N+](=O)[O-])cc1,0,x,x,x,-0.3,
COc1ccc(NC2=NC(C)(CO)CS2)cc1 (stereo not given),1,x,x,-8%,1.5,
Cc1ccc2nc(/C(C#N)=C\c3ccc([N+](=O)[O-])o3)[nH]c2c1,100,-37,-15,<0.2µM*,34*,
O=c1[nH]c(/C(Cl)=C/c2c(F)cccc2Cl)nc2cc(Cl)ccc12,2,-10,-39,-3%,-4.2,
O=C(CCCc1nc2ccccc2s1)NC(c1ccccc1)c1ccccc1,2,-11,-20,3%,2.0,
C=CCOC(=O)/C(=C/c1ccco1)NC(=O)/C=C/c1ccccc1,6,2,-19,8%,-4.3,
O=C(O)c1cccnc1SC1CC(=O)N(CCc2ccccc2)C1=O (stereo not given),-1,8,-20,-2%,-1.3,
CCc1cccc(C)c1NC(=O)CNCc1ccccc1,4,1,-17,-8%,-2.0,
CCc1ccccc1NC(=O)/C(=C/c1ccccc1)c1ccccc1,46,11,-22,12%,2.3,
CCCc1cc(=O)[nH]c(SCC(=O)c2cc(C)n(C3CC3)c2C)n1,26,1,-26,5%,0.4,
CCN(CC)CC(C)CNC(=O)CC(C(=O)N1CCc2ccccc21)n1ccnc1 (stereo not given),1,-3,-36,-1%,-1.5,
COc1ccc(CCN2CC(C(=O)NCc3c(C)n[nH]c3C)CCC2=O)cc1 (stereo not given),-10,x,x,x,-7.1,
Clc1ccc(Oc2cccc(/C=N/n3cnnc3)c2)cc1,77,4,-48,10%,4.4,
O=C(O)c1ccccc1NS(=O)(=O)c1ccccc1C(F)(F)F,0,6,-42,-14%,-2.6,
C/C=C/c1ccc(OCC(=O)OCC)c(OC)c1,85,1,x,78%,1.6,
CC(C)(C)C(=O)Nc1ccc2oc(-c3cc(F)c(F)cc3Cl)nc2c1,62,-1,-16,5%,1.6,
NC(=O)c1ccc[n+](CC(=O)c2ccc(NC(=O)c3ccccc3)cc2)c1,-3,x,x,x,2.6,
CC(=O)c1ccc(NC(=O)C(Cc2ccccc2)NC(=O)c2ccco2)cc1 (stereo not given),-8,3,-42,2%,2.5,
COc1ccc(-c2[nH]ncc2CNC(C)c2ccccc2Cl)cc1F (stereo not given),-6,-7,x,16%,3.3,
CCOC(=O)c1ccc2nc(Nc3nc4ccc(F)cc4s3)sc2c1,29,1,-31,2%,0.3,
CN(C(=O)c1cccc(C#N)c1)c1nnc(C2CCOC2)s1 (stereo not given),1,-2,-31,-1%,2.7,
CCCn1nnc(NC(=O)c2ccccc2Br)n1,-7,1,8,1%,1.9,
Cc1cc(C)n2nc(SCC(N)=O)nc2n1,-1,-1,x,7%,-1.5,
CCOC(=O)c1nonc1NC(C)=O,5,-2,-12,-5%,-1.7,
CCc1ccc(S(=O)(=O)NCc2cccnc2)cc1,1,x,x,x,2.9,
O=C(/C=C/c1ccccc1)NCCS(=O)(=O)N1CCN(c2ccccc2F)CC1,-11,x,x,x,-1.9,
CN1C[C@@H]2C(c3ccc(Cl)nc3)C3(c4ccc(C#N)cc4)CC2(C3)[C@H]1c1ccccc1 (stereo not given in full),66,x,x,8%,1.8,
Cc1[nH]n(-c2nc(-c3ccc(Cl)cc3)cs2)c(=O)c1N=Nc1ccc(O)cc1,67,-4,x,<0.2µM*,3.3,
O=C(OCCN1CCN(c2ncc(C(F)(F)F)cc2Cl)CC1)c1ccc(Cl)cc1,91,-3,-9,28%,8.0,
Clc1ccc(CCNc2ncnc3c2nnn3Cc2ccccc2)cc1,5,x,x,x,0.5,
O=C(c1ccc([N+](=O)[O-])s1)N1CCN(c2ccc(C(F)(F)F)cn2)CC1,100,x,x,x,-1.0,
CCc1cccc(OCC(=O)Nc2ccc(S(=O)(=O)Nc3ccccn3)cc2)c1,5,0,x,-4%,0.8,
O=C(CCc1ccccc1)Nc1ccncc1,4,14,4,-4%,1.4,
O=C(Nc1cc(Cl)ccc1N1CCOCC1)c1ccco1,-2,x,x,x,-2.5,
CCOC(=O)C(=O)Nc1ccc(Oc2ccccc2)cc1,29,-3,x,-13%,-0.5,
COc1cccc(C(N)=O)c1,-1,x,x,1%,-1.2,
Cc1ccc(Cn2nnnc2CN2CCC(n3nnc4cc(C(F)(F)F)ccc43)CC2)cc1,97,19,-30,6%,2.1,
O=C(Nc1ccc(Br)cc1Cl)NC1CC1,1,9,x,5%,3.2,
COc1cc2c(cc1OC)C(C(=O)Nc1ccccn1)C(c1cccnc1)N(C)C2=O (stereo not given),u,6,-6,-9%,-0.5,
CCOc1ccccc1-c1nn2c(Cc3ccccc3)nnc2s1,u,-5,-8,1%,8.8,
COc1ccccc1Cn1c(=S)[nH]c2cc(C(=O)NCCN(C)C)ccc2c1=O,-5,x,x,x,-0.5,
CCn1nc(C)c(CN2CCN(Cc3cccc(OC)c3)C(CCO)C2)c1C (stereo not given),-10,1,x,-9%,-1.4,
CC(C)(C#N)Nc1ccccc1,7,1,-34,-4%,-5.8,
Fc1ccc2c(c1)nnn2C1CCN(Cc2nnnn2C2CCCCC2)CC1,11,4,-41,-3%,3.7,
CSc1nnc(-c2ccc(F)cc2)o1,4,0,-4,-11%,2.1,
CC(=O)NC(O)C(=O)c1ccccc1 (stereo not given),9,8,-8,3%,0.8,Arbovirus anti repeat=4
# Further compounds.
SMILES,Mtb bLac sens,Arbovirus anti,YopH inh,Mtb growth,RecA splice inh,others
CC1CCN(C(=O)C2CCN(CC(C)c3ccccc3)CC2)CC1 (stereo not given),-5,1,-22,-11%,-3.2,
COC(=O)c1ccc(OCCOc2ccc(C(=O)OC)cc2)cc1,5,4,-3,9%,2.7,
CC1(C)C(=O)OC(/C=C\c2cccc([N+](=O)[O-])c2)C(C)(C)C1=O (stereo not given),-2,9,x,2%,-0.1,
CCS(=O)(=O)N1Cc2ccccc2CC1C(=O)N(C)Cc1ccc(OC)cc1OC (stereo not given),-1,x,x,x,0.6,
CCOC(=O)C1=C(c2ccccc2)N=c2s/c(=C\c3ccco3)c(=O)n2C1c1cccs1 (stereo not given),22,-5,-18,x,0.4,
Cc1c(NP(=S)(C(C)(C)C)C(C)(C)C)c(=O)n(-c2ccccc2)n1C,-4,-2,x,5%,0.3,
CN(C(=O)CSc1nc(-c2ccc(F)cc2)cs1)C1CCS(=O)(=O)C1 (stereo not given),4,-3,-2,-3%,1.3,
Cc1cc(F)ccc1S(=O)(=O)NCC1CC2CCC1C2 (stereo not given),3,x,x,x,1.8,
CC(=O)OCCCN1C(=O)c2ccc(Br)cc2C1=O,-2,0,-45,-12%,-2.3,
CCOc1ccccc1NC(=O)CSc1nnc(CNC(=O)c2ccco2)o1,-7,6,-4,-14%,1.4,
CCOc1ccc(NC(N)=O)cc1OCC,u,2,-1,-1%,-2.3,
O=C1c2cccc3c([N+](=O)[O-])ccc(c23)C(=O)N1Cc1cccnc1,x,-35,x,2µM*,-135,
CN(CC(=O)N1CCc2ccccc21)S(=O)(=O)c1ccc(Cl)cc1,8,3,25,-6%,0.5,
CC(C)c1cccc(OCCN2CCCC2)c1,-2,x,x,x,-2.2,
COc1ccc(OC)c(CN2CCN(C(=O)c3cccc4ccccc34)CC2)c1,11,11,-34,0%,4.9,
Cc1cc(SCC(=O)OCC(=O)NCc2ccc3c(c2)OCO3)c(C)cc1Br,0,-4,-20,7%,2.7,
C/C(=N\NC(=O)OC(C)(C)C)c1ccccc1Br,-3,-6,x,0%,1.9,
O=S(=O)(c1ccccc1)N1CN2CCN(C2)C1,16,-2,-50,-2%,-5.6,
COCC(=O)N(C)C1(c2nnnn2CCOC(=O)Nc2cccc3ccccc23)CCCC1,-6,6,2,-2%,10,
CC(C)CCn1c(O)c(N=Nc2ccccn2)c2ccccc21,52,2,-8,31%,7.9,

# Some of these compounds in order of SMILES length, descending.
SMILES,Mtb bLac sens,Arbovirus anti,YopH inh,Mtb growth,RecA splice inh,others
O=C1c2cccc3c([N+](=O)[O-])ccc(c23)C(=O)N1Cc1cccnc1,x,-35,x,2µM*,-135,
C/C(=N\NC(=O)OC(C)(C)C)c1ccccc1Br,-3,-6,x,0%,1.9,
CCOc1ccc(NC(N)=O)cc1OCC,u,2,-1,-1%,-2.3,

# Carrying on:
SMILES,Mtb bLac sens,Arbovirus anti,YopH inh,Mtb growth,RecA splice inh,others
Cc1ccc(S(=O)(=O)N2CCCCC2c2cccnc2)c(C)c1C (stereo not given),43,x,x,x,2.9,
COc1ccc(Nc2cc(C)c3ccccc3n2)cc1,70,7,x,32%,3.2,
Cc1ccc(-c2nn(-c3ccccc3)cc2C2CC(c3cccs3)=NN2C(=O)CCCC(=O)O)cc1 (stereo not given),1,-33,2,-4%,3.5,
COc1ccc(CNC(=O)CCSCc2ccccc2C)cc1,-4,9,x,3%,1.9,
COc1ccc(N2CCN(C(=O)CN(C)S(=O)(=O)c3ccc4c(c3)c(=O)n(C)c(=O)n4C)CC2)cc1,15,0,x,-6%,-1.2,
O=[N+]([O-])c1ccc(N2CCN(c3ccccc3)CC2)cc1,1,x,x,x,-2.6,
C=CCn1c(SCC(=O)NC2CC2)nnc1-c1cccs1,5,x,x,x,-0.6,
O=C(N/N=C/c1cc(Cl)ccc1O)c1ccc(Br)cc1,1,-33,-6,5%,x,
CCCCn1c(O)c(C(CC)=NCc2ccc(F)cc2)c(=O)[nH]c1=O,6,-9,-10,-1%,-2.2,
COc1ccc(CCOC(=O)c2cccc(NC(C)=O)c2)cc1,-2,x,x,x,2.4,
COc1ccc(Cc2nnc(NS(=O)(=O)Cc3ccccc3)s2)cc1,-5,-2,-26,-13%,1.6,
NC(=O)c1c(NC(=O)CCCn2cnc([N+](=O)[O-])n2)sc2c1CCCC2,15,9,x,-3%,-4.3,
CN(C)S(=O)(=O)c1ccc(Cl)c(C(=O)NC2CCN(Cc3ccccc3)C2)c1 (stereo not given),4,x,x,x,-5.1,
Cc1c(NC(=O)c2cc(-c3ccc4c(c3)OCO4)on2)c(=O)n(-c2ccccc2)n1C,-3,0,-16,5%,x,
Nc1nc(C(F)(F)F)cc(=O)[nH]1,-7,x,x,-5%,-0.1,
Cc1ccc(O)c(CCc2ccc(O)cc2)n1,4,2,x,0%,0.4,
Cc1cccc(NS(=O)(=O)c2cccc3cccnc23)n1,4,11,-21,-6%,x,
O=[N+]([O-])c1ccc(Cl)c2cccnc12,-1,-12,x,2%,x,
Cc1cc(C)nc(OC(C(=O)O)C(OCCc2ccccc2)(c2ccc(F)cc2)c2ccc(F)cc2)n1 (stereo not given),1,x,x,x,5.7,
CCCCN(CCCNC(=O)C1CCN(C(=O)c2cc3sccc3n2C)CC1)Cc1ccccc1,-7,x,x,x,-1.8,
COC(CNS(=O)(=O)c1cccc2nonc12)OC,0,4,x,0%,x,

# By substructure, the entries above containing an NH in an aromatic ring (10)
SMILES,Mtb bLac sens,Arbovirus anti,YopH inh,Mtb growth,RecA splice inh,others
CCn1c(CCCc2ccc(OC)c(C)c2)n[nH]c1=S,3,3,x,2%,-0.9,
Cc1ccc2nc(/C(C#N)=C\c3ccc([N+](=O)[O-])o3)[nH]c2c1,100,-37,-15,<0.2µM*,34*,
O=c1[nH]c(/C(Cl)=C/c2c(F)cccc2Cl)nc2cc(Cl)ccc12,2,-10,-39,-3%,-4.2,
CCCc1cc(=O)[nH]c(SCC(=O)c2cc(C)n(C3CC3)c2C)n1,26,1,-26,5%,0.4,
COc1ccc(CCN2CC(C(=O)NCc3c(C)n[nH]c3C)CCC2=O)cc1 (stereo not given),-10,x,x,x,-7.1,
COc1ccc(-c2[nH]ncc2CNC(C)c2ccccc2Cl)cc1F (stereo not given),-6,-7,x,16%,3.3,
Cc1[nH]n(-c2nc(-c3ccc(Cl)cc3)cs2)c(=O)c1N=Nc1ccc(O)cc1,67,-4,x,<0.2µM*,3.3,
COc1ccccc1Cn1c(=S)[nH]c2cc(C(=O)NCCN(C)C)ccc2c1=O,-5,x,x,x,-0.5,
CCCCn1c(O)c(C(CC)=NCc2ccc(F)cc2)c(=O)[nH]c1=O,6,-9,-10,-1%,-2.2,
Nc1nc(C(F)(F)F)cc(=O)[nH]1,-7,x,x,-5%,-0.1,

# Assay outcomes as filed in PubChem.
